Marburg entry inh: inhibitors of Marburg virus binding or cell entry; Marburg virus pseudotyped entry inhibition, cell reporter; control for the full effect not named in the record; about a third of the inactives were read at about 46 µM; Potency, µM (titrated, usually from 37.8 µM), for inactives: at the top dose activity change, negative = inhibition, actives largely listed as inhibitors; 300,000 tested, 1.8% active; AID 540276; active = well fitted inhibition curve with a large enough effect; inconclusive = small, poorly fitted or top-dose-only effect, or effect the other way; inactive = flat fitted curve, though single readings scatter; tested in HEK293 cells; about a fifth of its hits are not listed in these tables; note: % is set by controls: 0 for no effect and ±100 for the full control effect; luciferase read-out
RE007 growth inh: less growth of the S. pombe RE007 Vpr strain | S. pombe RE007 Vpr strain, BacTiter-Glo ATP luminescence, 24 h; control for the full effect not named in the record | Potency, µM (doses to about 92.2 µM), for inactives: top-dose activity change, negative = less growth | 360,000 tested, 0.21% active | AID 651644; active = well fitted falling curve with a large enough effect; inconclusive = small, poorly fitted or top-dose-only effect; inactive = no such curve, though single readings can be large or run the other way;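 note: % is set by controls: 0 for no effect and ±100 for the full control effect; nearly all actives have a fitted effect of over 50% in size; the assay follows cell death caused by Vpr and the record does not say whether a fall means rescue or toxicity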
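Fission yeast RE007 carrying one integrated HIV-1 vpr copy, seeded at OD 0.01 in PMG+AL medium with 23 nL pinned compound. Grown 24 h at 30 degrees; viability read by BacTiter-Glo luminescence after 5 min.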
SARS PLP yeast: blocks SARS-CoV papain-like protease in a yeast assay | Potency, µM (doses to about 32.9 µM), inactives show at the top dose activity, positive = growth rescue | S. cerevisiae expressing SARS-CoV PLpro, growth rescue; control for the full effect not named in the record | AID 485353 | 330,000 tested, 0.19% active; note: 0% is about no effect; nearly all actives have a fitted effect of over 55% in size; growth read by luminescence after 48 h
LASV entry inh: blocks Lassa virus binding to or entry into cells; 300,000 tested, 1.2% active; Potency, µM (highest dose often 37.9 µM), for the others: at the highest dose activity change, negative = inhibition, usual class: inhibitors; Lassa virus pseudotype entry inhibition, cell reporter; control for the full effect not named in the record; active means well fitted inhibition curve with a large enough effect; inconclusive means small, poorly fitted or top-dose-only effect, or effect the other way; inactive means flat fitted curve, though single readings scatter; tested in HEK293 cells; note: % is set by controls: 0 for no effect and ±100 for the full control effect; nearly all actives have a fitted effect of over 50% in size; luciferase read-out
Cruzain inh noDet: cruzain (T. cruzi) inhibition without detergent; purified cruzain, Z-FR-AMC fluorescence, no detergent; P25779; Potency, µM, without a hit: max response, negative = inhibition, usual class: inhibitors; 200,000 tested, 2.3% active; active = well fitted curve in the direction sought with a large enough effect; inconclusive = small, poorly fitted or top-dose-only effect, or another doubt; inactive = no such curve, though single readings can be large; an effect the other way counts as inactive or inconclusive;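 note: plate controls were enzyme without inhibitor for no effect and buffer without enzyme for full effect; nearly all actives have a fitted effect of over 40% in size; top concentration of the series not given in the record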
Target sequence (P25779 123-467 limits assumed): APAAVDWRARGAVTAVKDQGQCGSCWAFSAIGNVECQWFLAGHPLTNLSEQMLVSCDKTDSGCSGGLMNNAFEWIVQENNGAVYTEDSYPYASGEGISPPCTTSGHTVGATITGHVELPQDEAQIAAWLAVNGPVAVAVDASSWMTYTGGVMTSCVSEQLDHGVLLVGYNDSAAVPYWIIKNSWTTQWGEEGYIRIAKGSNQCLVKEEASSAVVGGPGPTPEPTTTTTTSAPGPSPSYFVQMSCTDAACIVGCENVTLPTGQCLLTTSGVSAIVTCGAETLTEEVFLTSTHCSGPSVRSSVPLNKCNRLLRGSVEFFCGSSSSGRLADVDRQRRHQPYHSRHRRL
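Purified cruzain at 1.5 nM, pre-incubated 15 min with compound at room temperature in 100 mM sodium acetate pH 5.5, 5 mM DTT, 0.00005% Triton X-100. Reaction started with 2 uM Z-FR-AMC; AMC fluorescence increase over 60 s gives rate.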
StopGo reporter: lowers the luciferase signal of an FMDV 2A StopGo reporter; human cells with a luciferase reporter of 2A StopGo recoding; control for the full effect not named in the record; Potency, µM (series often up to 57.9 µM), for the others: top-dose signal change, negative = less light; 410,000 tested, 1.2% active; active = well fitted falling curve with a large enough effect; inconclusive = small, poorly fitted or top-dose-only effect; inactive = no such curve, though single readings can be large or run the other way; tested in HEK293T cells; note: % is set by controls: 0 for no effect and ±100 for the full control effect; nearly all actives have a fitted effect of over 45% in size; luciferase light after 4 h
NS1 inh: influenza NS1 inhibition; S. cerevisiae slowed by influenza A NS1, growth recovery by OD600; Potency, µM (series often up to 46.1 µM), for inactives: at the top dose activity, positive = more growth; 270,000 tested, 0.4% active; AID 2326; note: actives are rising curves; nearly all actives have a fitted effect of over 50% in size
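In this qHTS, NS1 from influenza A is expressed in budding yeast, where it slows growth. Cells are switched from glucose to 2% galactose medium (pH 6.0, -URA), treated with compound, and growth recovery is read at OD600.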
Cruzain Triton: blocks cruzain activity in presence of Triton detergent. Potency, µM, inactives show max response, negative = inhibition, usual class: inhibitors. 200,000 tested, 0.43% active. purified cruzain, Z-FR-AMC fluorescence, 0.01% Triton; active = well fitted curve in the direction sought with a large enough effect; inconclusive = small, poorly fitted or top-dose-only effect, or another doubt; inactive = no such curve, though single readings can be large; an effect the other way counts as inactive or inconclusive;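 note: plate controls were neutral wells for no effect and buffer without enzyme for full effect; nearly all actives have a fitted effect of over 40% in size; top concentration of the series not given in the record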
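In this qHTS format, compounds are incubated with 1.5 nM cruzain for 15 min at room temperature before 2 uM Z-FR-AMC is added. Release of AMC is followed at 360/450 nm, and progress is taken as the 60 s fluorescence difference.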
Numbers without * were called inactive; ? = inconclusive; nt = not tested or not shown; [ ] = dose if it differs, or a comment. Unless noted, calls come from the whole dose curve; as a rule, active means well fitted rising curve with a large enough effect; inconclusive means small, poorly fitted or top-dose-only effect; inactive means no such curve, though single readings can be large or run the other way. Potency is the fitted concentration of half-maximal effect.

SMILES	Marburg entry inh	RE007 growth inh	SARS PLP yeast	LASV entry inh	Cruzain inh noDet	StopGo reporter	NS1 inh	Cruzain Triton
C[C@@H](C(=O)NCCc1ccccc1F)N1C(=O)N2CCc3c([nH]c4ccccc34)[C@@]2(C)C1=O	nt	5%	-28%	nt	nt	0%	-27%	nt
COC(=O)c1cccnc1NC(=S)NNC(=O)c1ccccc1	?	3%	2%	19%	-4%	65%[activator]	3%	0.2%
CCOCCCn1c(SCC(=O)OCC)nc2c(sc3ccccc32)c1=O	nt	nt	nt	17%[46.1 µM]	10%	?	nt	1.4%
Cc1ccc2nc(Cl)c3cc(C(=O)N4CCCCC4)sc3c2c1	8%[46.1 µM]	nt	nt	6%[46.1 µM]	-10%	24%	nt	-6.1%
Cc1cccc(Nc2nc(Cl)ncc2F)c1C	3%[46.1 µM]	9%	3%	2%[46.1 µM]	nt	1%	-11%	nt
O=C1CCC(C(=O)N2CCCCCCC2)CN1Cc1cccc(C(F)(F)F)c1 (centres undefined)	1%	4%	-4%	?	nt	-18%	-6%	nt
Cc1ccn2c(Nc3ccc4c(c3)OCO4)c(-c3ccc(C)o3)nc2c1	?	nt	nt	-16%[46.1 µM]	-18%	26%	nt	-6.9%
C/C(CCc1ccc2c(c1)OCO2)=N\N=C(/N)SC1CC(=O)N(c2ccccc2F)C1=O (centres undefined)	11%[46.1 µM]	-7%	12%	-5%	16µM*	-19%	?	-29%
O=c1[nH]c(/C=C2\C=Nc3ccccc32)c(O)n1Cc1ccccc1F	?	-9%	-2%	nt	nt	-27%	4%	nt
CC1Sc2ccc(S(=O)(=O)NCc3ccccc3)cc2NC1=O (centres undefined)	nt	8%	3%	nt	nt	3%	-2%	nt
O=C(Nc1ccc(S(=O)(=O)N2CCOCC2)cc1)c1cc(S(=O)(=O)N2CCOCC2)ccc1Cl	-1%[46.1 µM]	-10%	21%	-12%[46.1 µM]	nt	-27%	8%	nt
N=c1n(CC(=O)c2ccc(Br)s2)c2ccccc2n1Cc1ccccc1	nt	16%	-1%	nt	nt	?	7%	nt
Cc1ccc(NC(=O)c2cnc(N3CCCCC3)c3ccccc23)cc1Cl	nt	nt	nt	-6%[46.1 µM]	?	?	nt	-12%
Cc1ccc(C(=O)NCC(c2ccc(Cl)cc2)N2CCCCC2)cc1 (centres undefined)	?	nt	nt	-1%[46.1 µM]	-7%	-20%	nt	-0.4%
O=C(COc1ccccc1O)NCCN1CCOCC1	8%[46.1 µM]	9%	-6%	2%[46.1 µM]	nt	-2%	10%	nt
COc1cc(/C=N/NC(=O)c2ccccc2O)ccc1OC(=O)CC1SC(=O)NC1=O (centres undefined)	nt	19%	-3%	nt	nt	29%	0%	nt
O=C(CSc1nccn(-c2ccc(F)c(F)c2)c1=O)NC1CCCC1	-10%	6%	5%	3%	nt	-2%	nt	nt
COc1ccc(C(=O)Nc2ccc(-c3cn4ccsc4n3)cc2)cc1S(=O)(=O)N1CCOCC1	?	0%	-6%	22%	?	-28%	-7%	-3.3%
CCn1c(=O)cc(OCC(=O)Nc2ccc(OC)c(OC)c2)c2ccccc21	-21%[46.1 µM]	1%	-1%	4%	nt	-18%	nt	nt
Cc1ccc(CNC(=O)CSc2ncc(S(=O)(=O)c3ccc(Br)cc3)c(=O)[nH]2)cc1	1%[46.1 µM]	nt	nt	1%[46.1 µM]	?	-1%	nt	1.0%
COC(=O)C1=C(C)N(C)C(=O)NC1c1c(O)ccc2ccccc12 (centres undefined)	nt	-15%	-2%	1%	nt	-15%	6%	nt
CC1CCCCN1C(=S)NC(=O)c1ccccc1 (centres undefined)	-13%	-3%	-1%	5%	nt	0%	nt	nt
Clc1cccc(Cl)c1CN1CCN(c2ncccn2)CC1	?	-2%	15%	22%[46.1 µM]	nt	12%	-17%	nt
COCC(=O)Nc1ccc(F)cc1	?	6%	1%	-2%[46.1 µM]	nt	4%	nt	nt
CSc1nc2ccc(Nc3nc(N4CCOCC4)nc(N4CCOCC4)n3)cc2s1	?	-23%	1%	?	?	-28%	4%	-6.6%
CN1CCN(C(=O)c2cc([N+](=O)[O-])cc([N+](=O)[O-])c2)CC1	nt	-3%	4%	nt	nt	-5%	?	nt
COc1ccc(Cl)cc1NS(=O)(=O)c1c(C)nc2scc(C)n2c1=O	5%[46.1 µM]	nt	nt	-3%[46.1 µM]	-1%	-4%	nt	0.5%
O=C(CC(=O)c1ccccc1)Nc1cccnc1Cl	0%	-5%	-3%	1%	-2%	46%[activator]	7%	-2.8%
CCCc1ccc(OCc2ccc(C(=O)O)o2)c(OC)c1	?	-3%	3%	?	1%	-66%	-3%	2.6%
CCS(=O)(=O)N1CCN(c2ccc([N+](=O)[O-])c(NC(C)c3ccccc3)c2)CC1 (centres undefined)	?	25%	6%	?	?	-23%	2%	-3.7%
COC(=O)c1c(NC(=O)COc2ncnc3ccccc23)sc(C)c1C	-4%	10%	-13%	-5%	2%	-7%	4%	-6.7%
CCCCN(CC)CCNC(=O)c1cc2c(=O)[nH]c3ccc(C)cc3c2s1	5µM*	0%	0%	?	nt	-27%	0%	nt
O=C(Cn1c(=O)c2cccn2c2ccc(F)cc21)Nc1cccc(F)c1	nt	nt	nt	1%[46.1 µM]	9%	-14%	nt	-1.6%
COc1ccc2c(c1OC)C(=O)N(c1ccc(OCc3ccccc3)cc1)C2=O	3%[46.1 µM]	7%	0%	11%[46.1 µM]	nt	-14%	1%	nt
COC(=O)C1=C(C)N(C)C(C)=C(C(=O)OC)C1c1ccccc1C	3%	-7%	-5%	-2%	9%	-28%	-4%	-3.6%
CC(=O)c1ccc(NC(=O)c2cnn3c(C(F)F)cc(C4CC4)nc23)cc1	-1%	-10%	nt	-6%	nt	46%[activator]	nt	nt
COc1cc2c(cc1O)C(Cc1ccc(O)cc1)NCC2 (centres undefined)	13%	-2%	6%	-15%	2%	-12%	20%	-0.8%
NC(=O)C1CCN(C(=O)C2CCN(S(=O)(=O)c3ccccc3)CC2)CC1	nt	0%	-7%	nt	0%	-19%	3%	3.7%
COc1ccc(/C=C/C(=O)Nc2ccccc2C(F)(F)F)cc1OC	5%	3%	1%	?	-5%	0%	-8%	2.5%
O=C(COc1ccc(Cl)cc1Cl)NC(=S)Nc1ccc(CN2CCOCC2)cc1	-14%	-27%	0%	0%	nt	28µM*	0%	nt
CCOC(=O)c1ccc(NC(=O)Cn2c(=O)cc(C)c3c(C)nn(-c4ccc(CC)cc4)c32)cc1	nt	nt	nt	-2%[46.1 µM]	-14%	-2%	nt	-0.5%
CCCNC(=O)CSc1n[nH]c(=O)n1CCc1ccccc1	nt	4%	1%	nt	nt	-9%	?	nt
c1ccc(CCNCCOc2ccccc2)cc1	?	1%	7%	-4%	nt	8%	-6%	nt
CCc1ccc(NS(=O)(=O)c2c(-c3ccccc3)csc2C(=O)OC)cc1	nt	nt	nt	?	?	23%	nt	-12%
CC(C)NC(=O)C1CCC(Cn2c(=O)c3sccc3n(CC(=O)NCc3ccccc3)c2=O)CC1 (centres undefined)	nt	nt	nt	?	-4%	-3%	nt	-5.3%
CCOCCn1c(CN2CCN(C)CC2)nc2c1c(=O)n(C)c(=O)n2C	nt	-5%	-1%	nt	nt	0%	3%	nt
CCCCCCSc1nsc(NC(C)=O)n1	6%	14%	-2%	17%	0%	38%[activator]	-15%	-2.2%
COc1ccc(C(CNC(=O)COc2ccccc2C)N2CCOCC2)cc1 (centres undefined)	-2%	1%	-2%	19%	nt	-10%	nt	nt
CCCCCN=CC1=C(O)CC(c2ccccc2)CC1=O (centres undefined)	?	12%	4%	-2%	nt	-2%	nt	nt
O=C(NCc1cccnc1)c1cc([N+](=O)[O-])ccc1N1CCOCC1	2%[46.1 µM]	0%	-1%	1%	nt	4%	nt	nt
CCn1ccnc1C(O)c1cccc(OC)c1 (centres undefined)	1%	-18%	5%	3%	1%	9%	15%	2.3%
COc1ccc(-c2ccc(C#N)c(SCC(=O)NCCc3ccccc3)n2)cc1OC	-2%	-15%	-12%	nt	1%	-16%	0%	3.4%
O=C(Nc1ccccc1OCc1ccccc1)c1ccccc1Br	nt	2%	-4%	nt	nt	-9%	-57%	nt
COc1ccc(C(=O)/C=C2/C(=O)Nc3ccccc32)c(OC)c1	?	6%	-11%	?	nt	?	-76%	nt
CC(C)(C)NC(=O)c1cccc(NC(=O)c2ccc(NC(=O)c3ccco3)cc2)c1	?	9%	-1%	?	11%	nt	-10%[9.22 µM]	3.1%
COc1ccc(C(=O)NCc2ccc3c(c2)CCN3C(=O)c2ccccc2)cc1	nt	nt	nt	?	14%	0%	nt	-1.1%
Fc1ccccc1Cc1noc(CN2CCC(OCc3cccnc3)CC2)n1	0%[46.1 µM]	-12%	-4%	?	nt	-5%	-1%	nt
CCCN1CN=C(NS(=O)(=O)c2ccc(C)cc2)NC1	-1%[46.1 µM]	-24%	6%	2%[46.1 µM]	nt	7%	-10%	nt
O=C(COC(=O)C1=COCCO1)Nc1cc(Cl)c(Cl)cc1Cl	18%	1%	1%	0%	nt	12%	nt	nt
CCOC(=O)c1ccc(COC(=O)CCc2nc3ccccc3[nH]c2=O)o1	?	13%	1%	-9%	-7%	13%	3%	1.5%

Other results follow:
SMILES	Marburg entry inh	RE007 growth inh	SARS PLP yeast	LASV entry inh	Cruzain inh noDet	StopGo reporter	NS1 inh	Cruzain Triton
CCOc1ccccc1CNC(=O)C1CCN(c2nnc(-n3c(C)ccc3C)s2)CC1	-1%[46.1 µM]	nt	nt	-10%[46.1 µM]	-14%	-11%	nt	-3.2%
CC(C)Cc1nnc(NC(=O)CSc2nc(O)c(Cc3ccccc3)c(=O)[nH]2)s1	23%[46.1 µM]	7%	-2%	-6%	nt	-2%	nt	nt
COc1ccc(N2CCN(C(=O)CN3C(=O)C4CC=CCC4C3=O)CC2)cc1 (centres undefined)	19%[46.1 µM]	-5%	8%	0%	14%	11%	-2%	4.7%
Cc1cc2c(cc1C)NC1(C(=O)Nc3ccccc31)C1=C(CC(C)(C)CC1=O)N2 (centres undefined)	?	2%	nt	-2%	-2%	-10%	1%	-2.1%
COc1ccc(C(=O)NC(=S)N(C)C2CCCCC2)cc1	nt	5%	9%	nt	nt	69%[activator]	4%	nt
CC(=O)c1cccc(NC(=O)C2CCCN2S(=O)(=O)c2cccc3nsnc23)c1 (centres undefined)	1%	-14%	0%	nt	-8%	4%	-2%	-5.7%
